MLL AF4-AF9 inh: inhibitors of human MLL-AF4/AF9 interaction; AlphaScreen, biotin-AF4 peptide binding to FLAG-AF9; inhibition, % at 10 µM; 0.47% of 350,000 active; AID 651704;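 active = every replicate reaching a set inhibition limit, whatever the replicate mean, cut at about 25% in these data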;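 note: 0% = plate neutral control median and 100% = total signal loss; the record names both 10 and 1 µM as test concentration; the first replicate is given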
Target sequence (P42568 whole entry, looked up): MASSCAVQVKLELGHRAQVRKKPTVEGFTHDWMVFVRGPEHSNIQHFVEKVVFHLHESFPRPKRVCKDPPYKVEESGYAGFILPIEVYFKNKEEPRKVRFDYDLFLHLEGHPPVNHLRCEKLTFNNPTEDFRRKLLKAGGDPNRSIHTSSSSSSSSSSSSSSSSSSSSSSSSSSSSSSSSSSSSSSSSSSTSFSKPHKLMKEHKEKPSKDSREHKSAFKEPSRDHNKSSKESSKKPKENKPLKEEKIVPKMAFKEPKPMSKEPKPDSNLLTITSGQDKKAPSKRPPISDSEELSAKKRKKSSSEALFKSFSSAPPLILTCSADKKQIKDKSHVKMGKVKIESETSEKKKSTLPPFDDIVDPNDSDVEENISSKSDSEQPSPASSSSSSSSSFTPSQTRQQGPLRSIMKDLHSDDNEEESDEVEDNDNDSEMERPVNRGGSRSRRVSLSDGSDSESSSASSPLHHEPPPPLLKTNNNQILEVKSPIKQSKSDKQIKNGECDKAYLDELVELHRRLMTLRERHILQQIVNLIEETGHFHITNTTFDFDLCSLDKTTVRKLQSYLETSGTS
Ecoli rRNA inh: inhibitors of bacterial rRNA selective over humanized ribosomes. 1.6% of 350,000 active. GFP signal change (wild-type ribosome), % (test concentration not listed). AID 720706. E. coli WT GFP vs humanized-ribosome RFP mutants, fluorescence, 24 h; hits give low values; DMSO median 0, no signal -100;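 active = significant combined selectivity score with lowered wild-type GFP, culture density cut under 30%, mutant RFP and density less affected; inactive = any of these conditions unmet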; note: one replicate is shown; some compounds called inactive have numbers as strong as hits
Ecoli rRNA inh OD600: second read-out of Ecoli rRNA inh, no call of its own (marks repeat the call); OD600 change, %; measured here: OD600 growth;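 optical density of the mix in the first replicate; 0 = DMSO median and -100 = no signal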
Ecoli rRNA inh RFP: further read-out of Ecoli rRNA inh, marked with its call; RFP signal change, %; measured here: RFP humanized mutant strains;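 first replicate; 0 = DMSO median and -100 = no signal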
Starred values were filed as active, the others as inactive; & = joins results of further samples. Only part of the results is shown; rates above refer to the full screens.

Every second line gives: MLL AF4-AF9 inh	Ecoli rRNA inh	Ecoli rRNA inh OD600	Ecoli rRNA inh RFP
- O=C(C1CCCC1)N1CC(=O)N2[C@H](C1)[C@H](c1ccc(-c3ccccc3F)cc1)[C@@H]2CO
  -1.1	-2	3	8.6
- Cc1ccc(-c2ccc(C3[C@@H]4CN(Cc5cccnc5)C[C@H]3N4)cc2)cc1 (some centres undefined)
  17&16	-3&-43	-6&-48	3.5&11
- CC(C)NC(=O)N1CC2(C1)[C@@H](c1ccccc1)[C@@H](CO)N2C(=O)C1CC1
  -3.2	5	8	-3.9
- COc1ccc2c3c(n(C)c2c1)[C@@H](CO)N(Cc1cccc(Cl)c1)CC31CCN(C(=O)C2CC2)CC1
  -0.8	0	-3	-2.8
- Cc1ccc(C(=O)N[C@H](C(=O)Nc2cccc(S(=O)(=O)N3CCOCC3)c2)C(C)C)cc1
  1.5	15	22	4.6
- CCS(=O)(=O)Nc1ccc2c(c1)C(=O)N(C)C[C@H](OC)[C@H](C)CN(C(=O)COC)[C@@H](C)CO2
  0.2	-3	-8	-1.3
- CCCNC(=O)[C@H]1[C@H](CO)[C@H]2Cn3c(ccc(/C=C/c4ccccc4)c3=O)[C@@H]1N2CCC
  -4.8	-3	-6	0.6
- COc1ccc(-c2ccc([C@@H]3[C@@H](CO)N4C(=O)CN(C(=O)c5cccnc5)C[C@H]34)cc2)cc1
  18	-1	-3	-5.4
- O=C(CC1CC1)N1CC2(C1)[C@@H](c1ccccc1)[C@H](CO)N2C(=O)c1cccnc1
  -4.4	3	1	-1.6
- CCCNC(=O)N1CC2(C1)CN(C(=O)CC1CC1)[C@H](CO)c1[nH]c3cc(OC)ccc3c12
  -3.3	1	8	-1.9
- CC(=O)N1CCCCN2[C@H](CO)[C@H](c3ccc(-c4ccc(F)cc4)cc3)[C@@H]2C1
  -7.4	0	4	1.2
- O=C1CNC[C@H]2[C@H](c3ccc(C#CC4CCCCC4)cc3)[C@@H](CO)N12
  3.6	-2	2	-2.3
- Cc1ccc(CN2CC(=O)N3[C@H](C2)[C@@H](c2ccc(Br)cc2)[C@@H]3CO)cc1
  1.7	-1	-14	7.8
- O=C(C1CCCC1)N1CC2(C1)[C@@H](c1ccccc1)[C@@H](CO)N2Cc1cncnc1
  -2.6	1	6	-1.8
- O=C(Nc1ccc(F)cc1)N1CC(=O)N2[C@@H](CO)[C@H](c3ccc(-c4ccccc4)cc3)[C@@H]2C1
  1.3	-4	-3	7.4
- O=C(C1CC1)N1CC(=O)N2[C@H](CO)[C@@H](c3ccc(Br)cc3)[C@@H]2C1
  -1.7	2	8	-0.7
- COc1ccc2c3c(n(C)c2c1)[C@@H](CO)N(C(=O)Nc1ccccc1F)CC31CCN(C(=O)c2ccccc2)CC1
  -1.3	-6	-3	-1.3
- O=C(C[C@H]1CC[C@@H](NC(=O)Nc2ccccc2F)[C@H](CO)O1)NCc1ccc(F)cc1
  -2.6	4	1	-0.7
- Cc1ccc(-c2ccc([C@H]3[C@H](CO)N4C(=O)CN(C(=O)c5ccccc5)C[C@@H]34)cc2)cc1
  -2.4	4	-7	3.8
- O=C(C[C@@H]1CC[C@@H](NC(=O)C2CCOCC2)[C@@H](CO)O1)NCc1ccncc1
  -4.6	3	3	0.5

Only Ecoli rRNA inh RFP and Ecoli rRNA inh (three entries from above):
structure,Ecoli rRNA inh RFP,Ecoli rRNA inh
Cc1ccc(C(=O)N[C@H](C(=O)Nc2cccc(S(=O)(=O)N3CCOCC3)c2)C(C)C)cc1,4.6,15
CCS(=O)(=O)Nc1ccc2c(c1)C(=O)N(C)C[C@H](OC)[C@H](C)CN(C(=O)COC)[C@@H](C)CO2,-1.3,-3
CCCNC(=O)[C@H]1[C@H](CO)[C@H]2Cn3c(ccc(/C=C/c4ccccc4)c3=O)[C@@H]1N2CCC,0.6,-3

Other results
Every second line gives: MLL AF4-AF9 inh	Ecoli rRNA inh	Ecoli rRNA inh OD600	Ecoli rRNA inh RFP
- C[C@@H]1CCCCO[C@@H](CN(C)C(=O)Nc2ccc3c(c2)OCO3)[C@@H](C)CN([C@@H](C)CO)C(=O)c2cc(NC(=O)Nc3ccc4c(c3)OCO4)ccc2O1
  3.9	3	4	-2.6
- COc1ccc(C#Cc2ccc([C@@H]3[C@@H](CO)N4C(=O)CN(C(=O)c5ccccc5)C[C@@H]34)cc2)cc1
  -13	5	12	-6.4
- O=C(NC1CCC1)[C@@H]1[C@@H](CO)[C@@H]2Cn3c(cccc3=O)[C@@H]2N1CC1CCOCC1
  -5.6	3	9	-3.4
- O=S(=O)(Cc1ccccc1)N1CCCCN2[C@H](C1)[C@H](c1ccc(-c3ccccc3)cc1)[C@@H]2CO
  -1.3	-25	-43	2.3
- C[C@@H]1CN([C@H](C)CO)C(=O)c2c(c3ccccc3n2C)-c2ccccc2CO[C@@H]1CN(C)C(=O)Nc1ccc(-c2ccccc2)cc1
  0.7	2	16	-6.5
- Cc1noc(C)c1NC(=O)N(C)C[C@H]1OCCCC[C@H](C)Oc2ccc(NS(=O)(=O)c3ccccc3)cc2C(=O)N([C@H](C)CO)C[C@@H]1C
  -3.9	-2	7	2.2
- CO[C@@H]1CN(C)C(=O)c2cc(NC(=O)c3ccccc3)ccc2OC[C@@H](C)N(C(=O)CN(C)C)C[C@H]1C
  -0.2	3	3	-0.1
- CC=Cc1ccc2n(c1=O)C[C@@H]1[C@@H](CO)[C@H](C(=O)NCc3ccccc3)N(CC)[C@H]21 (mixture of isomers)
  -0.1	-1	-3	-0.5
- Clc1ccc(-c2nc3c4ccccc4ccn3c2Cc2ccccc2)cc1
  1.8	9	11	-3.6
- O=C1CN(S(=O)(=O)Cc2ccccc2)C[C@H]2[C@@H](c3ccc(C#CCC4CCCC4)cc3)[C@H](CO)N12
  2.3	7	2	12
- OC[C@@H]1[C@H](c2ccc(-c3ccccc3F)cc2)[C@@H]2CN(Cc3ccncc3)CCCCN12
  4.2	-4	6	0.8
- C/C=C/c1ccc([C@H]2[C@@H](CO)N3C(=O)CN(C(=O)c4ccc(F)cc4)C[C@@H]23)cc1
  1.1	0	-9	-5.2
- c1ccc(CN2C[C@@H]3N[C@H](C2)C3c2ccc(-c3ccncc3)cc2)cc1 (some centres undefined)
  8.0&2.0	1&0	6&-6	-3.4&8.4
- Cc1ccccc1S(=O)(=O)N1CC(=O)N2[C@H](C1)[C@@H](c1ccc(C#CCN(C)C)cc1)[C@@H]2CO
  3.4	-1	-3	-1.3
- O=C(NCCc1ccccc1)[C@@H]1N[C@@H]2c3ccc(-c4ccc(F)cc4)c(=O)n3C[C@@H]2[C@H]1CO
  4.0	-6	-7	-0.7
- Cc1ccc(S(=O)(=O)Nc2ccc3c(c2)C(=O)N([C@@H](C)CO)C[C@@H](C)[C@@H](CN(C)Cc2ccc(C(=O)O)cc2)OCCCC[C@H](C)O3)cc1
  -4.3	0	6	-1.3
- COc1cccc(CNC(=O)C[C@H]2CC[C@H]3[C@@H](COc4ccc(NC(C)=O)cc4C(=O)N3C)O2)c1
  -2.9	2	2	-1.3
- CCCNC(=O)N1CC(=O)N2[C@H](C1)[C@@H](c1ccc(C#Cc3ccc(F)cc3)cc1)[C@@H]2CO
  -1.7	-59	-73	-16
- Cc1ccc(-c2ccc([C@@H]3[C@@H](CO)N4C(=O)CN(C(=O)Nc5cccc(F)c5)C[C@H]34)cc2)cc1
  -2.5	-5	-41	29
- Cc1noc(C)c1S(=O)(=O)Nc1ccc2c(c1)C(=O)N([C@H](C)CO)C[C@H](C)[C@H](CN(C)Cc1ccc(C(F)(F)F)cc1)O2
  -10	-4	-9	9.5
- COc1ccc2c3c([nH]c2c1)[C@H](CO)N(C(=O)c1cccc(F)c1)CC31CN(S(=O)(=O)c2cccs2)C1
  2.5	-8	-17	-1.9
- COc1ccc2c3c([nH]c2c1)[C@H](CO)N(C(=O)c1cccc(F)c1)CC31CN(C(=O)CC2CC2)C1
  -3.4	-2	9	-1.2
- CO[C@H]1CN(C)C(=O)c2ccc(NC(=O)Nc3cc(F)ccc3F)cc2OC[C@@H](C)N(C(=O)c2cnccn2)C[C@H]1C
  3.7	-4	1	0.1
- COc1ccc(C#Cc2ccc([C@@H]3[C@H]4CN(C(=O)c5cccnc5)CC(=O)N4[C@H]3CO)cc2)cc1
  -9.4	4	-16	26
- O=C(C1CCC1)N1CC(=O)N2[C@H](CO)[C@@H](c3ccc(-c4cccnc4)cc3)[C@H]2C1
  1.0	3	23	-1.3
- C/C=C/c1ccccc1[C@@H]1[C@@H](C#N)N(C(=O)CN2CCOCC2)[C@H]1CO
  -3.1	8	17	1.9
- O=C(Cc1ccccn1)N1CC(=O)N2[C@H](C1)[C@@H](c1ccc(C#CC3CCCCC3)cc1)[C@@H]2CO
  7.5	0	-30	14
- C[C@@H]1CN([C@@H](C)CO)C(=O)c2cc(NS(C)(=O)=O)ccc2O[C@@H](C)CCCCO[C@H]1CN(C)C(=O)Nc1ccc(C(F)(F)F)cc1
  -2.0	-4	8	-0.8
- Cc1ccc(C(C)C)cc1-n1nnc(-c2cccc(Cc3ccc4ccccc4c3)c2)c1C(C)O (centres undefined)
  -1.0	13	6	0.7
- CCCNC(=O)Nc1ccc2c(c1)OC[C@H](C)N(CC1CCCC1)C[C@@H](C)[C@H](OC)CN(C)C2=O
  -6.0	-4	-8	-2.8
- COc1cccc(-c2cc3nc(C)cc(N4CCN(C(=O)c5ccoc5)CC4)n3n2)c1
  5.8	-4	-15	-5.2
- CCCNC(=O)N1[C@@H]2CNC[C@H]1C2c1ccc(-c2cccc(C)c2)cc1 (some centres undefined)
  3.4&3.1	1&4	-3&2	1.5&-1.0
- C[C@@H]1CN([C@@H](C)CO)C(=O)c2cc(NC(=O)CCC(F)(F)F)ccc2O[C@@H](C)CCCCO[C@H]1CN(C)Cc1ccncc1
  -3.4	0	1	-1.0
- Cc1noc(C)c1NC(=O)Nc1ccc2c(c1)C(=O)N([C@@H](C)CO)C[C@H](C)[C@@H](CN(C)S(=O)(=O)c1ccc(F)cc1)OCCCC[C@H](C)O2
  1.2	-1	1	-1.2
- O=C(Nc1ccc(F)cc1)N1CC(=O)N2[C@H](C1)[C@H](c1ccc(C#Cc3ccc(F)cc3)cc1)[C@@H]2CO
  -0.8	-6	-45	23
- COc1ccc2c3c([nH]c2c1)[C@H](CO)N(C)CC31CCN(S(=O)(=O)c2ccc(C)cc2)CC1
  -8.3	-8	-23	1.4
- C[C@@H]1CCCCO[C@H](CN(C)S(=O)(=O)c2cccs2)[C@H](C)CN([C@@H](C)CO)C(=O)c2cc(NS(=O)(=O)c3ccccc3)ccc2O1
  -7.6	-4	-10	0.8
- Fc1cccc(-c2ccc(C3[C@H]4CNC[C@@H]3N4Cc3ccccc3F)cc2)c1 (some centres undefined)
  1.9	-59	-70	-11
- CCCNC(=O)C[C@H]1CC[C@H]2[C@H](COc3ccc(NC(=O)NCCC)cc3C(=O)N2C)O1
  -10	1	-6	0.3
- CCCC(=O)N1CC2(CCN(Cc3cccnc3)CC2)c2c([nH]c3cc(OC)ccc23)[C@@H]1CO
  5.7	-2	5	0.6
- COc1ccc(Nc2nnc(SCC(=O)NC3CCCC3)s2)cc1
  -6.9	11	11	4.8
- COc1ccc2c3c([nH]c2c1)[C@H](CO)N(CC1CC1)CC31CCN(C(=O)Nc2cccc(F)c2)CC1
  -4.0	-4	8	2.7
- O=C(Nc1ccc(F)cc1)N1CC(=O)N2[C@H](CO)[C@@H](c3ccc(Br)cc3)[C@@H]2C1
  -1.5	-5	0	-0.6
- Cc1noc(C)c1NC(=O)N(C)C[C@@H]1Oc2ccc(NC(=O)C3CCCCC3)cc2CC(=O)N([C@@H](C)CO)C[C@@H]1C
  -1.5	2	4	-0.4
- C/C=C/c1ccc(C2[C@H]3CNC[C@@H]2N3C(=O)Nc2ccc(F)cc2)cc1 (some centres undefined)
  0.6&2.7	5&3	15&-3	-2.3&0.3
- COCCNC(=O)[C@@H]1[C@@H](CO)[C@@H]2Cn3c(ccc(C4=CCCCC4)c3=O)[C@H]1N2C(=O)C1CC1
  -0.1	1	-1	0.1

Looked up one by one from the entries so far (5):
Every second line gives: MLL AF4-AF9 inh	Ecoli rRNA inh	Ecoli rRNA inh OD600	Ecoli rRNA inh RFP
- COc1ccc2c3c([nH]c2c1)[C@H](CO)N(C)CC31CCN(S(=O)(=O)c2ccc(C)cc2)CC1
  -8.3	-8	-23	1.4
- O=C(Cc1ccccn1)N1CC(=O)N2[C@H](C1)[C@@H](c1ccc(C#CC3CCCCC3)cc1)[C@@H]2CO
  7.5	0	-30	14
- O=S(=O)(Cc1ccccc1)N1CCCCN2[C@H](C1)[C@H](c1ccc(-c3ccccc3)cc1)[C@@H]2CO
  -1.3	-25	-43	2.3
- Cc1noc(C)c1S(=O)(=O)Nc1ccc2c(c1)C(=O)N([C@H](C)CO)C[C@H](C)[C@H](CN(C)Cc1ccc(C(F)(F)F)cc1)O2
  -10	-4	-9	9.5
- CCCNC(=O)[C@H]1[C@H](CO)[C@H]2Cn3c(ccc(/C=C/c4ccccc4)c3=O)[C@@H]1N2CCC
  -4.8	-3	-6	0.6

An excerpt from above in order of SMILES length, lowest first:
Every second line gives: MLL AF4-AF9 inh	Ecoli rRNA inh	Ecoli rRNA inh OD600	Ecoli rRNA inh RFP
- COc1ccc(Nc2nnc(SCC(=O)NC3CCCC3)s2)cc1
  -6.9	11	11	4.8
- O=C(Nc1ccc(F)cc1)N1CC(=O)N2[C@H](CO)[C@@H](c3ccc(Br)cc3)[C@@H]2C1
  -1.5	-5	0	-0.6
- Cc1noc(C)c1NC(=O)N(C)C[C@@H]1Oc2ccc(NC(=O)C3CCCCC3)cc2CC(=O)N([C@@H](C)CO)C[C@@H]1C
  -1.5	2	4	-0.4

Screening data: PubChem, Broad Institute
